MT stabilize HCS: microtubule stabilization, imaging screen; HeLa tubulin immunostaining HCS, 24 h; share of cells brighter than vehicle mean+2SD; % tubulin-high responders, % at 10 µM; AID 2205; actives 0.83% (n = 200,000);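 active = plate Z-score above 3 for both tubulin-high and condensed-nucleus cell shares, with cell loss under 80%, at 10 µM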;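 note: anti alpha tubulin signal scored within the nucleus-defined area of each cell; some results filed as inactive read as strong as hits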
T cell HTS: T cell immune modulation candidate | 2C CD8+ T cell-vesicle binding, flow cytometry; hits give low values | calls only at 7 µM | actives 0.068% (n = 330,000) | AID 2052;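 active = response, share of CD8 T cells binding vesicles, and their 90th percentile fluorescence all below set limits, cut at about 80% in these data, passing the limit was not always enough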
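Material: 2C TCR transgenic mouse naive CD8+ T cells, MACS-purified. Also added: QL9-charged Drosophila Ld/ICAM-1/B7-1 vesicles. Timing: binding 1.5 h at 37 °C. Measured by: high-throughput flow cytometry with anti-B7-1 and anti-CD8 staining. Read-out: percent CD8+ FL2 mean versus row control. Controls: Unloaded micro-vesicles (low), QL9 vesicles with 0.7% DMSO (high).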
Myeloid diff 2: compounds promoting myeloid differentiation. ER-HoxA9 myeloid progenitors, lysozyme-GFP differentiation, flow cytometry. calls only at 10 µM. actives 1% (n = 360,000). AID 624256;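 active = normalized GFP-positive differentiation at or above the plate's own cutoff, the solvent-only control mean plus 3 SD; inconclusive = no clear call, values can overlap the other calls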;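 note: cells exposed to compound for four days before flow analysis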
Ins promoter up: MIN6 insulin promoter up-regulation. MIN6 insulin promoter-GFP reporter, high-content imaging; hits give high values. z-score at 5 µM. actives 0.3% (n = 190,000);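 active = z-score above 3 at 5 µM with at least 500 cells counted in the well; inconclusive = wells under 500 cells, flagged as cytotoxic or low count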
Dynein transport: blocks dynein driven cargo transport along microtubules. 3617.4 mouse cells, GR-EGFP nuclear translocation imaging; test concentration mostly 20 µM; stimulated with dexamethasone, 1 µM; hits give low values. z-score, hits read low. actives 0.47% (n = 220,000). AID 1381;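 active = plate z-score of nuclear minus cytoplasmic receptor signal below a set negative limit, without overly bright fluorescence or cell loss, cut at about -3.5 in these data, passing the limit was not always enough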;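 note: z-score of nuclear minus cytoplasmic ring GR-EGFP intensity difference per well; some compounds called inactive have numbers as strong as hits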
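medium = tetracycline-free induction medium containing charcoal-stripped FBS | probe or stimulus = dexamethasone, 1.0 µM final | timing = 48 h induction, then 1 h compound, then 30 min agonist, 37 °C | detection = automated 10x imaging of fixed Hoechst-stained cells | read-out basis = nuclear versus cytoplasmic GR-EGFP signal, averaged per well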
TNAP activation fold: human TNAP enzyme activators, primary screen, biochemical, luminescent, no phosphate acceptor, uHTS (AID 1001) | purified TNAP, luminescent activation assay, no phosphate acceptor; higher activation fold means a stronger effect | activation fold at 20 µM; hits with a dose series show EC50 in µM | actives 0.03% (n = 200,000); in the data active = activation fold from about 3, or a potency from the dose series; inactive = the rest, 99 in 100 with activation fold below about 1.6; note: many of its hits are not listed in these tables
Dynein transport cytoplasmic EGFP: recorded beside Dynein transport, whose call it bears; z-score; measured here: cytoplasmic GR-EGFP intensity; hits give high values
Dynein transport nuclear GR-EGFP: second read-out of Dynein transport, no call of its own (marks repeat the call); z-score; measured here: nuclear GR-EGFP intensity;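 lower value marks the stronger effect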
Dynein transport cell count: further read-out of Dynein transport, marked with its call; z-score; measured here: cell count per field
Ins promoter up cell count: recorded beside Ins promoter up, whose call it bears; cell count; measured here: cytotoxicity, nuclei count;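 total cells summed across four imaged fields per well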
T cell HTS vesicle-bound %: recorded beside T cell HTS, whose call it bears; double positive events, %; measured here: CD8+ vesicle-bound cell fraction;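 binding gate set so that unloaded-vesicle control wells show 10% double positive cells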
MT stabilize HCS Hoechst-high %: second read-out of MT stabilize HCS, no call of its own (marks repeat the call); % Hoechst-high responders; measured here: nuclear condensation Hoechst responders;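 share of cells brighter than vehicle mean plus two SD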
MT stabilize HCS cytotoxicity %: also measured in MT stabilize HCS; calls as there; toxicity, %; measured here: cytotoxicity by cell density;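 0% = mean cell density of plate MIN control wells and 100% = no cells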
Myeloid diff 2 GFP+ MAC1+ %: recorded beside Myeloid diff 2, whose call it bears; GFP+ MAC1+ double positive, %; measured here: differentiation confirmed by MAC1 staining
Starred values were filed as active, the others as inactive; i = inactive; ? = inconclusive; . = no result given. Some of the compounds tested. The share of hits here may be higher or lower than overall.

SMILES | MT stabilize HCS | MT stabilize HCS Hoechst-high % | MT stabilize HCS cytotoxicity % | T cell HTS | T cell HTS vesicle-bound % | Myeloid diff 2 | Myeloid diff 2 GFP+ MAC1+ % | Ins promoter up | Ins promoter up cell count | Dynein transport | Dynein transport cytoplasmic EGFP | Dynein transport nuclear GR-EGFP | Dynein transport cell count | TNAP activation fold
Cn1cc(C(=O)c2ccc(Cl)cc2)cc1-c1nc2ccccc2n1C | 0.6 | 1.2 | 3.4 | i | 40 | i | 1.0 | -1.2 | 710 | -0.68 | -0.18 | -0.46 | 0.53 | 1
COC(=O)COc1ccsc1C(=O)OC | 2.6 | 1.6 | 8.1 | i | 19 | i | 7.8 | -0.22 | 1565 | 0.21 | -0.082 | -0.014 | -1.1 | 1.1
O=C(NCCCn1ccnc1)c1ccc(S(=O)(=O)N2CCCCCC2)cc1 | 2.5 | 1.5 | 9.1 | i | 30 | i | 0.4 | 0.35 | 1693 | 0.94 | -0.12 | -0.044 | -1.3 | 1
CCOC(=O)CNC(=O)CSc1nnc(-c2ccncc2)n1-c1ccc(Cl)cc1 | 3.5 | 1.8 | 9.5 | i | 20 | i | 0.4 | -0.55 | 1709 | 0.033 | -0.18 | -0.63 | -0.82 | 1.1
COc1ccc(CN2CN=C(Nc3nc4ccccc4s3)NC2)cc1 | 2.4 | 1.2 | 4.0 | i | 21 | i | 0.8 | -0.05 | 1440 | -0.62 | -0.23 | -0.94 | 0.75 | 1.1
CCNC(=O)/C(=C/c1ccco1)NC(=O)/C=C/c1ccccc1 | 1.8 | 1.4 | 1.5 | i | 20 | i | 0.5 | 1.6 | 1343 | 2.8 | -0.12 | 0.91 | -1.8 | 1.1
O=C(Cc1ccc(F)cc1)N(c1ccc(F)cc1)C1C=CS(=O)(=O)C1 (stereo not drawn) | 4.7 | 3.0 | 9.1 | i | 34 | i | 7.7 | -0.03 | 1487 | -0.68 | -0.33 | -0.17 | -0.02 | 1
CN(C)S(=O)(=O)c1cccc(NC(=O)COC(=O)c2ccc(Br)o2)c1 | 4.1 | 1.5 | 4.2 | i | 47 | i | 1.2 | 1.1 | 1414 | 1 | -0.2 | 0.55 | -0.037 | 1.1
O=c1nc(-c2ccccc2)n(-c2ccccc2)c2ncccc12 | 2.5 | 1.7 | 6.6 | i | 25 | i | 2.9 | -0.64 | 1689 | -0.85 | -0.2 | 0.22 | 1.6 | 1
Fc1cccc(CN2CCCCCCC2)c1 | 2.3 | 1.9 | 1.9 | i | 13 | i | 1.1 | 0.51 | 1347 | -0.55 | -0.32 | 0.37 | 0.52 | 1.1
N#Cc1ccc(-c2ccc(F)cc2)nc1Sc1ccc(F)cc1 | 2.2 | 1.4 | 5.0 | i | 16 | i | 0.8 | 0.71 | 1517 | 0.075 | 0.21 | 0.84 | 0.11 | 1.1
On1c(-c2ccccc2)nc2ccc(Cl)cc21 | 1.7 | 1.4 | 5.8 | i | 58 | i | 0.4 | 1.3 | 1453 | 1.1 | -0.17 | 0.28 | -0.3 | 1.1
Cc1ccccc1NC(=O)c1ccc(N/N=C/c2ccccc2O)c([N+](=O)[O-])c1 | 2.8 | 1.4 | 4.0 | i | 59 | i | 1.4 | 0.47 | 1555 | -0.084 | -0.14 | 0.5 | 0.19 | 0.9
NC(=O)C1CCN(C(=O)CCc2nc3ccccc3c(=O)[nH]2)CC1 | 2.1 | 1.9 | 5.8 | i | 24 | i | 8.1 | -0.26 | 1744 | 0.19 | 0.38 | 1.1 | 0.089 | 1.1
Cc1cc(NC(=S)Nc2ccccc2)ccc1Br | 3.0 | 2.0 | 6.0 | i | 28 | i | 5.1 | -0.39 | 1463 | 0.21 | -0.22 | 0.59 | 0.28 | 1
CSc1nc(Cl)c(C#N)c(-c2ccc(C)cc2)n1 | 1.4 | 1.3 | 1.6 | i | 11 | i | 2.1 | -0.83 | 1738 | -0.088 | -0.19 | -0.24 | 0.2 | 1.1
CCOc1ccc(C2=Nn3c(nnc3-c3ccccc3OC)SC2)cc1 | 19* | 27* | 53* | i | 20 | ? | . | -2.9 | 569 | -0.55 | -0.17 | 0.045 | -0.39 | 1
CCOCCCNC(=O)CCS(=O)(=O)Cc1ccc(C)cc1 | 1.8 | 2.0 | 11 | i | 34 | i | 8.9 | -0.34 | 1532 | -0.34 | -0.2 | -0.14 | 0.67 | 1.1
CCC(=O)Nc1cccc(-c2nnc(-c3cccc(NC(=O)CC)c3)o2)c1 | 2.4 | 2.1 | 7.6 | i | 37 | i | 4.4 | 0.32 | 1494 | -0.19 | -0.009 | -0.68 | -0.011 | 1.2
CC(=O)NCCc1cc2cc(C)c(C)cc2[nH]c1=O | 3.0 | 3.8 | 7.2 | i | 41 | i | 0.7 | 0.7 | 1603 | 0.89 | -0.34 | 0.42 | -0.39 | 1
Cc1noc(C)c1COc1ccc(C(=O)NCC2CCCO2)cc1 (stereo not drawn) | 2.9 | 2.1 | 10.0 | i | 34 | i | 0.2 | 0.19 | 1652 | -0.35 | -0.16 | 0.57 | 0.88 | 1
Cc1ccccc1OCC(=O)NC(=S)Nc1ccc(S(=O)(=O)NC2CCCCC2)cc1 | 2.3 | 1.5 | 6.1 | i | 42 | i | 0.7 | -0.69 | 1525 | -0.61 | -0.17 | -0.24 | 0.18 | 0.9

Sorted by SMILES length (descending): part of the list above.
SMILES | MT stabilize HCS | MT stabilize HCS Hoechst-high % | MT stabilize HCS cytotoxicity % | T cell HTS | T cell HTS vesicle-bound % | Myeloid diff 2 | Myeloid diff 2 GFP+ MAC1+ % | Ins promoter up | Ins promoter up cell count | Dynein transport | Dynein transport cytoplasmic EGFP | Dynein transport nuclear GR-EGFP | Dynein transport cell count | TNAP activation fold
CCC(=O)Nc1cccc(-c2nnc(-c3cccc(NC(=O)CC)c3)o2)c1 | 2.4 | 2.1 | 7.6 | i | 37 | i | 4.4 | 0.32 | 1494 | -0.19 | -0.009 | -0.68 | -0.011 | 1.2
O=c1nc(-c2ccccc2)n(-c2ccccc2)c2ncccc12 | 2.5 | 1.7 | 6.6 | i | 25 | i | 2.9 | -0.64 | 1689 | -0.85 | -0.2 | 0.22 | 1.6 | 1
Cc1cc(NC(=S)Nc2ccccc2)ccc1Br | 3.0 | 2.0 | 6.0 | i | 28 | i | 5.1 | -0.39 | 1463 | 0.21 | -0.22 | 0.59 | 0.28 | 1

Some entries already given, showing only Dynein transport, MT stabilize HCS cytotoxicity % and TNAP activation fold.
SMILES,Dynein transport,MT stabilize HCS cytotoxicity %,TNAP activation fold
Cc1ccccc1NC(=O)c1ccc(N/N=C/c2ccccc2O)c([N+](=O)[O-])c1,-0.084,4.0,0.9
NC(=O)C1CCN(C(=O)CCc2nc3ccccc3c(=O)[nH]2)CC1,0.19,5.8,1.1
Cc1cc(NC(=S)Nc2ccccc2)ccc1Br,0.21,6.0,1
